Calb FLC – C. albicans growth inhibition with fluconazole, primary screen, CaCi-2 strain, Alamar Blue fluorescence; AID 1979, 2009; C. albicans CaCi-2 (fluconazole-resistant clinical isolate) + fluconazole, 48 h; growth inhibition, % (no concentration beside the values); 0.57% of 300,000 active;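 active = most replicates above 75%; inconclusive = exactly half above 75%; inactive = most below 75%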;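 also: all wells also contain fluconazole at 8 µg/ml as a sub-toxic cotreatment; 0% = median of DMSO wells and 100% = median of geldanamycin control wells; wells of about 8 µL received 7.5 nL stock; the first replicate is given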
RanGTP-Imp inh – inhibitors of RanGTP-importin-beta interaction, primary screen, biochemical, FRET, CFP-Ran, YFP-importin-beta, homogeneous | inhibition, % (no concentration beside the values) | Ran GTPase (GTP-bound) - importin-beta complex | cell-free CFP-Ran/YFP-importin-beta FRET ratio | AID 2216, 2009 | 1.1% of 300,000 active;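 active = most replicates above 15%; inconclusive = exactly half above 15%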;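 also: 0% = DMSO wells and 100% = Ran loaded with GDP instead of GTP; wells of about 40 µL received 100 nL stock; the first replicate is given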
AF4-AF9 inh – inhibitors of AF4 peptide binding to AF9, primary screen, biochemical, AlphaScreen, biotin-AF4 peptide, FLAG-AF9, single point. AID 651704, 2012. inhibition, % at 10 µM. 0.47% of 350,000 active. Protein AF-9 (Homo sapiens), P42568;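 active = every replicate reaching a set inhibition limit, whatever the replicate mean, cut at about 25% in these data; inconclusive = mean inhibition reaches that limit but some replicates miss it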;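 also: 0% = plate neutral control median and 100% = total signal loss; the record names both 10 and 1 µM as test concentration; the first replicate is given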
T cruzi inh – inhibitors of intracellular T. cruzi growth, primary screen, luminescence, NIH3T3 host cells; inhibition, % (concentration not given with the values); T. cruzi beta-gal in NIH3T3, 90 h; 1.4% of 300,000 active;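 active = mean inhibition across valid replicates above about 55%, limit read from the data; inconclusive = mean below that limit but half or more replicates reach it; inactive = mean below it, under half of replicates reach it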;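 also: signal also drops with host cell toxicity which is not excluded here; 0% = plate median of DMSO wells and 100% = zero luminescence signal; higher percent means less beta-gal luminescence so fewer parasites; stock transfer was 50 nL into about 50 µL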
Vif A3G – inhibitors of Vif binding to APOBEC3G peptide, primary screen, biochemical, TR-FRET, GST-Vif 1-94, biotin-A3G peptide, dose response retest (AID 1117319); Virion infectivity factor (Human immunodeficiency virus type 1 group M subtype B (isolate …; TR-FRET GST-Vif / biotin-A3G peptide binding; higher % means a stronger effect; test concentration not given here; strong numbers were not always called active; inhibition, %; hits with a dose series show IC50 in µM; 0.57% of 260,000 active;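 active = above the screen mean plus three standard deviations and confirmed in dose response; inconclusive = results disagree or hit not tested in dose response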;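 also: Vif residues 1-94 fused to GST binding biotinylated APOBEC3G peptide 110-148; 0% = full assay without inhibitor and 100% = GST in place of GST-Vif; retest series ran down from 100 µM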
Beta apoptosis – inhibitors of cytokine-induced beta cell apoptosis, primary screen, luminescence | INS-1E cytokine-induced death, ATP luminescence, 48 h; percent of positive-control rescue, neutral wells zero | protection from apoptosis, % (test concentration not listed) | 0.8% of 300,000 active;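 active = all replicates at 75% or more, or half of them and the mean; inconclusive = half reach 75% but not the mean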;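 also: 0% = cytokine-treated negative control wells and 100% = positive control rescue; higher means more ATP so stronger rescue from cytokine killing; wells of about 40 µL received 100 nL stock; the first replicate is given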
Bfl-1 A1 inh – caspase 3/7 activation in MEF A1-2A-BIM cells, primary screen, A1 inhibitor project, cell-based, luminescence, HTS. caspase activation, % (no concentration beside the values). 0.066% of 330,000 active. Caspase-Glo 3/7 luminescence, 3 h; percent of clofoctol response, vehicle zero. AID 2462, 2010;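 active = over half of replicate activation scores above 10%, or exactly half above 10 with the replicate mean above 10; inconclusive = replicate mean below 10 yet half the replicates above 10; inactive = over half of replicates below 10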;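 also: wells of about 30 µL received 50 nL stock; many hits fall short of the cut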
LANA-H2B inh – blockers of LANA interaction with H2A/H2B – biochemical, FP readout, HTS, primary screen; Protein LANA1 (Human herpesvirus 8 type P (isolate GK18)), Q9QR71; cell-free LANA-H2A/H2B peptide, fluorescence polarization; inhibition, % (no concentration beside the values); 0.6% of 320,000 active; AID 2629, 2010; in the data active = inhibition mostly above about 10%, no sharp cut-off; inactive = mostly below about 6.7%;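 also: stock transfer was 7.5 nL into about 10 µL; 0% = median of vehicle wells and 100% = median of positive control wells; one replicate is shown; the record names a cut of 25% in any replicate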
Target sequence (Q9QR71 whole entry, looked up): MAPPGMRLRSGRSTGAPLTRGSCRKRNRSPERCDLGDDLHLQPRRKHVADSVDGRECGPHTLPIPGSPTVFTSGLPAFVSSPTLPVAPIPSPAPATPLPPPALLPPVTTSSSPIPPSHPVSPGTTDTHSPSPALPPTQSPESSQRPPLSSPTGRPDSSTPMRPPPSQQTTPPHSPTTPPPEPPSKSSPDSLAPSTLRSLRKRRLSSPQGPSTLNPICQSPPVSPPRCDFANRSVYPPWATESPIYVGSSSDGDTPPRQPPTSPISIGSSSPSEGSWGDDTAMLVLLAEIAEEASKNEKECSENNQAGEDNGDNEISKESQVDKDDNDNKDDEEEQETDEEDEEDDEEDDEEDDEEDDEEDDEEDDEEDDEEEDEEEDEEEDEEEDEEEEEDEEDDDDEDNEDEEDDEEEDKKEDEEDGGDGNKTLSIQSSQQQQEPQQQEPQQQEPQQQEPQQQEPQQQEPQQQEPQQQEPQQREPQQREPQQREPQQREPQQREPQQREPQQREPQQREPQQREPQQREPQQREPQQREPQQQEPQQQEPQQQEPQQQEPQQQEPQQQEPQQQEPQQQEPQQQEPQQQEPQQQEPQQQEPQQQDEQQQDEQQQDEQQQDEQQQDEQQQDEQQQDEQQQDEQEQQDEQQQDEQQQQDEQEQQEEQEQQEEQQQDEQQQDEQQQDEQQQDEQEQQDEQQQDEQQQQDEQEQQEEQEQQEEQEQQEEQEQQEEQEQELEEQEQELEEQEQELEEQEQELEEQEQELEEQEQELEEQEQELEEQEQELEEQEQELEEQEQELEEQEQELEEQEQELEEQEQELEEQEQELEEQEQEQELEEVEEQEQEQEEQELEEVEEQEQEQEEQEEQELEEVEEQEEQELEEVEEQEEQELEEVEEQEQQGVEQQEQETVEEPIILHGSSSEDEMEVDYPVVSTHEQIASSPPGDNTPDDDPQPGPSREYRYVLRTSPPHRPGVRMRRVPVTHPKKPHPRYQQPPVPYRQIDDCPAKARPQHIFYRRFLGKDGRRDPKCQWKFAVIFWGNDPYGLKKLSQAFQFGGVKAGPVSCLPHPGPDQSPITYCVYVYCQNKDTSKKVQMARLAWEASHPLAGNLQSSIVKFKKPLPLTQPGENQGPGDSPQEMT
Active calls of the source: *; ? = inconclusive; . = not tested or not shown.

SMILES	Calb FLC	RanGTP-Imp inh	AF4-AF9 inh	T cruzi inh	Vif A3G	Beta apoptosis	Bfl-1 A1 inh	LANA-H2B inh
CC(Cc1ccccc1)NCCC(c1ccccc1)c1ccccc1 (centres undefined)	.	.	6.3	.	.	-7	2.4	-0.4
Cc1ccc(/C=C2\C(=O)NC(=S)N(c3ccc(F)cc3)C2=O)o1	-6	-4.2	1.6	-24	.	-1	-0.8	-4.7
O=Cc1c(C(=O)O)n(Cc2ccccc2Cl)c2ccccc12	10	-2.2	-14	7	.	0	-1.0	-1.1
O=C(COc1ccc(Cl)cc1)N1CCN(Cc2ccccc2)CC1	36	1.3	2.1	5	-1%	-2	0.2	5.6
CN1/C(=C\C=Nc2ccccc2)C(C)(C)c2ccccc21	-15	-6.0	-0.4	15	13%	.	0.0	-6.9
C[N+]1(C)CCC(OC(=O)C(c2ccccc2)c2ccccc2)CC1	.	?	-4.2	7	.	2	-0.1	-1.2
C/C(=N\NC(=O)c1ccccc1Cl)c1c(O)n(C2CCCCC2)c(=O)[nH]c1=O	-1	9.0	0.1	-1	2%	0	-0.2	1.2
Cc1ccc(C2(O)CC(C)N(C)CC2C)cc1 (centres undefined)	4	-1.9	.	-10	-2%	1	0.1	6.9
CCOc1ccc(CC2(CCc3ccncc3)C(=O)NC(=O)NC2=O)cc1	-4	0.2	-1.5	-6	.	-2	0.4	2.8
O=C(CN1CC=C(c2ccccc2)CC1)NC(=O)NCc1ccco1	-12	-2.5	.	4	18%	2	-0.4	4.0
O=C(O)C(O)(c1ccccc1)C1CCCCC1 (centres undefined)	-8	2.4	-14	-9	.	2	-0.7	-0.1
CC(C(=O)c1ccc2ccccc2c1)N1CCCCC1 (centres undefined)	-5	3.7	-0.4	-4	.	1	1.0	-6.3
CCCCn1c(=O)c(C(=O)NC(C)c2ccccc2)c(O)c2ccccc21 (centres undefined)	1	-1.5	-14	-3	.	1	-0.5	-1.6
Clc1ccc(C(Cn2ccnc2)OCc2csc3c(Cl)cccc23)c(Cl)c1 (centres undefined)	.	.	-0.7	.	.	86*	-1.0	-2.4
Cc1cccc(C)c1OP(N)(=O)OCC(F)(F)F (centres undefined)	-2	4.5	.	-7	.	-1	-0.4	-5.8

2 successive records out of the list so far:
SMILES	Calb FLC	RanGTP-Imp inh	AF4-AF9 inh	T cruzi inh	Vif A3G	Beta apoptosis	Bfl-1 A1 inh	LANA-H2B inh
CC(Cc1ccccc1)NCCC(c1ccccc1)c1ccccc1 (centres undefined)	.	.	6.3	.	.	-7	2.4	-0.4
Cc1ccc(/C=C2\C(=O)NC(=S)N(c3ccc(F)cc3)C2=O)o1	-6	-4.2	1.6	-24	.	-1	-0.8	-4.7

More results
SMILES	Calb FLC	RanGTP-Imp inh	AF4-AF9 inh	T cruzi inh	Vif A3G	Beta apoptosis	Bfl-1 A1 inh	LANA-H2B inh
CC(Cc1ccccc1)NC(=O)Cc1ccc(N(C)C)cc1 (centres undefined)	-11	2.3	-6.3	29	4%	-1	1.2	-0.1
COC(=O)C1=Nc2ccccc2/C1=C\c1c(O)n(C)c(=O)n(C)c1=O	-12	-1.8	-3.3	-5	5%	2	0.1	7.1
CC1(C)CN=C(Nc2nc3ccccc3s2)S1	-25	4.0	.	-34	3%	-2	-1.4	-8.5
Cc1ccc(-c2nn(Cc3ccccc3)cc2C(=O)O)cc1	-1	-2.1	-1.1	-7	18%	0	-0.1	-1.1
CC1=NOC2(C)Nc3ncnn3C(c3ccccc3)C12 (centres undefined)	2	-0.3	.	4	-3%	-1	0.3	-9.4
O=C(c1ccc(Cl)cc1)C1CCCN(Cc2ccc3c(c2)OCCO3)C1 (centres undefined)	-29	-2.8	4.5	34	2%	-5	0.3	-1.2
Cc1ccc(-c2nc3ccc(Cl)cc3n2OC(=O)N(C)C)cc1	25	4.4	.	4	7%	-1	0.3	-2.5
COc1cc(-n2c(=S)[nH]c3ccccc3c2=O)c(Cl)cc1Cl	-6	?	.	-14	18%	-3	-0.1	-9.3
CCOc1cccc(=NC2CCCCC2)c2c(C)n(C)c(C)c12	42	-2.4	15	27	2%	67	1.7	1.2
Cc1cc(Cc2c(O)[nH]c(=S)[nH]c2=O)ccc1OC(C)C	-4	2.5	-2.2	0	-1%	0	-4.6	-17
Cc1nc2cc(C(F)(F)F)ccc2n1C1CCN(Cc2nnnn2Cc2ccc3c(c2)OCO3)CC1	15	9.1	.	40	-5%	12	0.2	-1.1
Fc1ccc(C2NCCc3[nH]cnc32)cc1 (centres undefined)	-6	0.3	.	-5	.	-8	0.1	-13
COc1cc(C2NCc3ccccc3-n3cccc32)ccc1O (centres undefined)	-13	0.2	.	-8	-1%	-4	-0.6	2.1
CN1CCN(c2nc(N)cc(=O)[nH]2)CC1	0	3.7	-2.1	5	4%	-3	0.1	-3.2
CC(=NCc1cccnc1)c1c(O)n(-c2ccccc2C)c(=O)[nH]c1=O	-5	4.3	-5.8	-19	21%	-2	0.0	2.3
COc1cc2c(c(OC)c1OC)-c1ccc(O)c(=O)cc1[C@@H](NC(C)=O)CC2	.	.	8.4	.	.	-5	0.4	-0.7
CCOc1ccc(C2SCC(=O)Nc3c2c(C)nn3C2CCOC(C)(C)C2)cc1 (centres undefined)	-5	2.3	.	-14	5%	2	0.2	-2.2
CCOP(=O)(OCC)C(NC(=O)Cc1ccccc1)C(Cl)(Cl)Cl (centres undefined)	-15	2.9	-0.5	0	-8%	-4	0.0	1.5
Cc1cccc(CN2CCCC(C(=O)c3cccc(OC(C)C)c3)C2)n1 (centres undefined)	-9	0.4	.	31	3%	-8	0.2	-0.4
Cc1ccc(C(C)C)c(OCC(=O)N2CCN(Cc3nc4cc([N+](=O)[O-])ccc4n3C)CC2)c1	13	-2.3	-0.8	10	.	1	0.5	2.5
COC(=O)c1ccc(CC(C(=O)c2ccccc2)N(C)C)cc1 (centres undefined)	1	0.6	1.4	9	-1%	-4	-0.3	0.1
COC(=O)C1=C(c2c(C)noc2C)C[C@@H]2CC[C@H]1N2C(=O)N1CCCC1	.	.	2.2	.	.	2	0.3	2.3
N#Cc1ccc(OCC(=O)N2CCN(Cc3ccc4c(c3)OCO4)CC2)cc1	-20	4.0	-5.5	-7	.	-3	0.8	-0.8
CCOc1c(Cl)cc(CNCCc2c[nH]c3ccccc23)cc1OC	-1	2.8	2.1	29	1%	-5	-0.4	-6.6
Cc1ccc(-n2c(/C=C/c3ccc4c(c3)OCO4)nc3ccccc3c2=O)cc1	3	1.6	.	-2	?	.	0.7	0.0
CCc1ccc(N2C(=O)NC(=O)/C(=C\c3cccn3CCOc3ccc(C(C)C)cc3)C2=O)cc1	-2	4.0	.	11	3%	14	-0.5	2.5
COC(=O)C1=C(c2ccccc2OCc2ccccc2)C[C@@H]2CC[C@H]1N2C(=O)NCCOc1ccccc1Cl	.	.	-1.2	.	.	-11	0.7	-2.1
Cn1c(O)c(C=NCCCNC2CCCCC2)c(=O)n(C)c1=O	3	?	.	9	?	5	0.5	2.5
CC1CN(CC(=O)c2ccccc2Cl)CC(C)O1 (centres undefined)	3	1.3	3.7	-20	-4%	-3	0.4	0.0
O=[N+]([O-])c1ccc(N2CCCC(C(F)(F)F)C2)c2ccncc12 (centres undefined)	-14	-2.7	14	13	14%	29	0.0	0.0
CCC1(C(=O)c2ccc(C)cc2)C2c3ccccc3OC(=O)C21C(=O)O (centres undefined)	-1	0.3	-42	-6	.	-7	-0.4	9.1
CCOP(=O)(OCC)C(NC(=O)c1ccccc1)C(Cl)(Cl)Cl (centres undefined)	-5	-0.5	-2.7	-7	19%	6	1.9	-8.6
N#Cc1c(N2CCNCC2)nc(-c2ccco2)c2c1CCCC2	-24	3.0	3.7	1	-2%	6	-0.8	-5.4
CSc1ncc(CN2CCCC(C(=O)c3ccccc3SC)C2)cn1 (centres undefined)	-3	-4.3	16	19	0%	-2	-0.8	-1.3
N/C(=N\[N+](=O)[O-])N1CCN(C(=O)c2ccccc2)CC1	?	-1.1	-2.2	6	.	0	0.6	-1.1
Clc1ccc(OCC#CCN2CCCC2)cc1	-6	3.3	4.5	29	-10%	-1	1.6	-3.4
COc1ccccc1-n1c(O)c(C=NCCN2CCNCC2)c(=O)[nH]c1=O	23	-3.8	.	-9	-4%	-5	0.6	-1.3
Cc1ccc2c(c1)C1CN(C)CCC1N2C(=O)Nc1cccc(Cl)c1 (centres undefined)	4	1.7	-3.9	36	0%	-1	0.0	0.7
COc1ccc(OCC(=O)N2CCN(Cc3ccc4c(c3)OCO4)CC2)cc1	-11	2.0	-1.0	6	8%	-2	-0.7	-0.7
COc1ccc(CN2CCN(C(=O)COc3cccc(C)c3)CC2)c(OC)c1	12	2.8	.	-6	-2%	.	.	.
O=C(c1ccccc1)C(CN1CCCC1)c1ccccc1 (centres undefined)	93*	-0.8	.	18	-8%	92*	0.2	-1.0
CCCCCCNc1nc(OC)nc(N2CC3CC(C2)c2cccc(=O)n2C3)n1 (centres undefined)	5	3.2	3.2	6	2%	-6	0.1	-1.3
CN1CC(C(=O)c2ccc(Cl)cc2)C(c2ccccc2)C1 (centres undefined)	-26	-0.4	4.8	24	2%	-4	-0.5	5.1
COC(=O)[C@]1(C)C[C@H]1[C@H](NP(=O)(c1ccccc1)c1ccccc1)c1ccccc1	6	-0.2	-2.2	4	7%	-12	0.3	-2.6
O=c1[nH]c(=O)n(-c2cccc3ccccc23)c(O)c1/C=N/N1CCCCC1c1cccnc1 (centres undefined)	?	-0.1	-1.7	-11	.	-4	0.1	0.3
O=C(c1cn(Cc2ccccc2)c2ccccc12)C1CC1	5	3.0	0.5	0	-5%	-2	-0.6	6.3
Cc1ccc(C)c(NC2=NCCCS2)c1	-5	1.4	.	9	-4%	2	1.1	-3.3
CO[C@H]1CC=C2CCN3CCC4=C(CC(=O)OC4)[C@]23C1	.	.	-2.4	.	.	-6	-1.4	1.3
CCCNC(=O)N1CCC2(CC1)OCCO2	-14	-2.4	-1.4	-11	-9%	-5	0.9	-8.2
Cn1c(O)c(Cc2ccc(OCc3ccccc3)cc2)c(=O)n(C)c1=O	10	2.5	-2.0	6	-3%	4	-0.4	0.8
COC1C(OC(=O)c2ccc(C)[nH]2)C(O)C(Oc2ccc3c(O)c(NC(=O)c4ccc(O)c(CC=C(C)C)c4)c(=O)oc3c2Cl)OC1(C)C (centres undefined)	.	.	4.0	.	26%	.	0.2	0.2
COC(=O)C1=C(c2ccc(OC)c(OC)c2)C[C@@H]2CC[C@H]1N2C(=O)NC1CC1	.	.	0.1	.	.	-2	0.3	-4.6
O=C1OC(c2ccc([N+](=O)[O-])cc2)=N/C1=C/N1CC2CC(C1)c1cccc(=O)n1C2 (centres undefined)	-5	-11	.	-1	-1%	-1	0.4	-3.1
Cc1ccc2nc(N3CCN(C)CC3)[nH]c2c1	0	0.6	.	10	4%	-7	-0.8	-4.3

Screening data as filed in PubChem.

Some of the compounds tested; count on the stated rates, not on these rows.
